Bioassay records (PubChem)
PrP UTR inh = inhibition of PrP 5' UTR reporter expression; cell-based PrP 5' UTR mRNA reporter, plate reader; inhibition, % (no concentration beside the values); actives 0.35% (n = 340,000); AID 488862;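 active = every replicate at 50% or more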;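 note: 0 = median of the neutral control wells; tested in H4 reporter cells; numbers are from one replicate; inactives centre near -14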
BJeLR viability = BJeLR cell viability loss; BJeLR (HRASV12) viability, CellTiter-Glo ATP luminescence, 48 h; reference of the scale not given here; inhibition, % (concentration not given with the values); actives 0.17% (n = 300,000); AID 1554;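 active = replicate mean above 50%; inconclusive = above 50% but judged a plate artefact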;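 note: 50 nL library stock added to about 25 µL; numbers are from one replicate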
Sa ugtP lethal = kills S. aureus RN4220 lacking UgtP; S. aureus RN4220 ugtP deletion, OD600 growth, 16 h; some inactives read as strong as hits; growth inhibition, % (concentration not given with the values); actives 0.54% (n = 330,000);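 active = z-score under -3 and OD600 up to 0.15 on both plates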;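 note: plate controls were untreated wells for no effect and antibiotic for full effect; wells of about 80 µL received 100 nL stock; the first replicate is given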
Mtb hypoxia inh = inhibitors of hypoxia-regulated fluorescent reporter in Mycobacterium tuberculosis; fluorescence inhibition, % (test concentration not listed); actives 0.1% (n = 300,000); M. tuberculosis hypoxia-regulated fluorescent reporter, fluorescence; AID 1159583;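 active = 35 to 45% if threefold the growth effect, above 45% if 1.5-fold the growth effect; inactive = the rest, general growth blockers included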;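 note: wells of about 50 µL received 100 nL stock; 0% = vehicle wells and 100% = reference inhibitor wells; whole bacteria with a GFP reporter of the hypoxia response; strong numbers were not always called active; many hits fall short of the cut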
Autofluor counter = compound fluorescence in toxin protease inhibitor counterscreen; actives 3.1% (n = 360,000); compound autofluorescence counterscreen, microsphere flow cytometry; hits give high values; fluorescence intensity (no concentration beside the values);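 active = at least 3 SD above the mean of all compounds, about 16000 in these data; inconclusive = too few beads counted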;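 note: 100 nL of 1 mM stock went into each well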
RN4220 kill = kills Staphylococcus aureus RN4220 | S. aureus RN4220 growth, OD600, 16 h | inhibition, % (test concentration not listed) | actives 0.33% (n = 330,000) | AID 1259311;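 active = z-score of -3 or lower and OD600 up to 0.18 on both plates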;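 note: plate controls were untreated cells for no effect and reference antibiotic for full effect; stock transfer was 100 nL into about 80 µL; one replicate is shown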
Mtb hypoxia inh growth = recorded beside Mtb hypoxia inh, whose call it bears; growth inhibition, %; measured here: M. tuberculosis growth (absorbance);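 0% = vehicle and 100% = reference antibiotic; read after six days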
Active calls of the source: *; ? = inconclusive; / = not tested or not shown.

SMILES	PrP UTR inh	BJeLR viability	Sa ugtP lethal	Mtb hypoxia inh	Mtb hypoxia inh growth	Autofluor counter	RN4220 kill
Cc1nn(C)c(C)c1CNC(=O)Nc1ccc(Cl)cc1	-24.1	7.8	0.6	7.8	9.9	5123	12.4
O=C(CN1CCN(C(=O)c2cccc(S(=O)(=O)N3CCCC3)c2)CC1)Nc1cccc(F)c1	-4.2	/	2.8	1.5	-5.9	/	1.7
COc1ccc(CCNC(=O)C2CCN(S(=O)(=O)c3ccc(OC)c(OC)c3)CC2)cc1	0.1	8.3	4.3	13.1	8.8	7959	1.7
CCS(=O)(=O)N1CCCC(C(=O)NCCCN2CCCC2=O)C1 (stereo unspecified)	-5.6	/	-3.9	8.3	6.1	3200	-7.8
C=CCn1c(SCc2ccc(Cl)c(Cl)c2)nnc1C(CO)NC(=O)c1ccc(OC)cc1 (stereo unspecified)	-8.7	-6.2	9.1	-3.9	-8.1	2758	8.3
O=C1CC(N2CCN(Cc3ccc4c(c3)OCO4)CC2)C(=O)N1Cc1ccc(N2CCCC2=O)cc1 (stereo unspecified)	-7.2	-1.0	4.4	-7.1	7.6	4508	3.1
COc1ccc2c(c1)CCC1C2=NN(/C(C)=C\C(C)=O)C1c1ccc(F)cc1 (stereo unspecified)	-37.0	4.1	-1.9	7.1	7.4	34486*	5.9
C=C1CCC2C(C)(C)C(O)CC[C@@]2(C)C1COc1cc(=O)oc2ccccc12 (stereo partly specified)	/	/	6.0	0.5	-2.0	/	2.9
COCCOC(=O)N/C=C\c1nc2ccccc2c(=O)[nH]1	-20.0	-5.1	-2.0	12.6	9.6	1959	28.8
COc1ccc(C(=O)N/N=C/c2ccc(OC(=O)c3cccc4ccccc34)c([N+](=O)[O-])c2)cc1	-1.4	1.1	/	/	/	2107	/
CN1CCN(S(=O)(=O)c2ccc(N(C)Cc3cccc(F)c3)nc2)CC1	1.6	/	0.1	4.5	-0.3	8588	1.6
COc1ccc(CCN2CC(O)=C(c3nc4ccccc4c(=O)[nH]3)C2=N)cc1OC	-5.9	0.9	10.4	3.7	0.6	?	2.8
O=C(Cc1ccc(NC(=O)C2CCN(C(=O)C3CCC3)CC2)cc1)Nc1cccc(C(=O)N2CCCCC2)c1	30.7	/	5.1	-3.9	-5.4	3177	0.5
Cc1cc(C)c2nc(N(CCCN(C)C)C(=O)c3ccc(S(=O)(=O)N4CCCCCC4)cc3)sc2c1	-6.5	1.1	-10.4	/	/	4561	0.2
Cc1ccc(S(=O)(=O)Nc2nccs2)cc1[N+](=O)[O-]	-14.0	-2.0	-0.2	-7.6	-6.2	4659	4.9
Cn1c(N)c(C(=O)CSc2n[nH]c(N)n2)c(=O)n(C)c1=O	-2.3	/	6.1	-1.4	2.0	6912	1.6
CCOC(=O)C1CCCN(C(=O)c2c(-c3ccccc3Cl)noc2C)C1 (stereo unspecified)	-10.3	-2.2	3.3	10.0	4.4	8416	7.9
CCCc1nc(N2CCCC2)c(C#N)c2c1CCCC2	-21.8	-4.5	78.2	4.1	-2.5	4529	0.5
O=c1[nH]c(=O)n(CCc2ccc(F)cc2)c(O)c1C=NCCCn1ccnc1	-5.0	6.7	5.1	11.3	14.7	2464	6.2
O=c1[nH]c(C2CCN(S(=O)(=O)c3ccc(C(F)(F)F)cc3)CC2)nc2c1nnn2Cc1ccccc1	-20.3	-10.5	-2.0	-17.9	-4.8	3996	-4.4

Whole records as entered above:
Listed for C=CCn1c(SCc2ccc(Cl)c(Cl)c2)nnc1C(CO)NC(=O)c1ccc(OC)cc1 (stereo unspecified) → PrP UTR inh: -8.7; BJeLR viability: -6.2; Sa ugtP lethal: 9.1; Mtb hypoxia inh: -3.9; Mtb hypoxia inh growth: -8.1; Autofluor counter: 2758; RN4220 kill: 8.3
Listed for Cc1ccc(S(=O)(=O)Nc2nccs2)cc1[N+](=O)[O-] → PrP UTR inh: -14.0; BJeLR viability: -2.0; Sa ugtP lethal: -0.2; Mtb hypoxia inh: -7.6; Mtb hypoxia inh growth: -6.2; Autofluor counter: 4659; RN4220 kill: 4.9

The main list resumes, repeating the 3 entries before the break.
SMILES	PrP UTR inh	BJeLR viability	Sa ugtP lethal	Mtb hypoxia inh	Mtb hypoxia inh growth	Autofluor counter	RN4220 kill
CCCc1nc(N2CCCC2)c(C#N)c2c1CCCC2	-21.8	-4.5	78.2	4.1	-2.5	4529	0.5
O=c1[nH]c(=O)n(CCc2ccc(F)cc2)c(O)c1C=NCCCn1ccnc1	-5.0	6.7	5.1	11.3	14.7	2464	6.2
O=c1[nH]c(C2CCN(S(=O)(=O)c3ccc(C(F)(F)F)cc3)CC2)nc2c1nnn2Cc1ccccc1	-20.3	-10.5	-2.0	-17.9	-4.8	3996	-4.4
CSc1ccc(NC(=O)Nc2cccn(Cc3ccccc3F)c2=O)cc1	-19.7	13.9	-4.6	6.1	4.2	4031	-5.0
CC(NC(=O)CCCCCCN1C(=O)c2ccccc2C1=O)c1ccc2c(c1)CCCC2 (stereo unspecified)	-25.1	-8.9	-10.1	18.4	7.1	2136	-2.9
Cn1cc(Br)c(C(=O)NC(=S)Nc2ccc(S(N)(=O)=O)cc2)n1	0.0	-0.2	-1.5	9.0	14.2	4551	3.2
O=C(Nc1c(Cl)cccc1Cl)c1cc(-c2ccco2)on1	-12.1	-7.2	7.8	0.5	-0.3	5014	6.0
Cc1ccc(NC(=O)Cc2nnc(SCC(=O)c3ccc(Br)cc3)n2C)cc1	-28.1	-0.9	-3.2	10.5	9.7	21836*	1.5
NC1=NC(=O)C(Cc2cccc(Cl)c2Cl)S1 (stereo unspecified)	-5.5	-12.8	-0.1	7.7	-1.7	7595	3.6
COc1cccc(C(=O)NC2=NCCS2)c1	-67.2	4.5	-10.3	7.3	5.5	8983	5.7
Cc1ccccc1C(=O)NC1CCN(CC(=O)NCc2ccccc2)CC1	-22.0	-2.9	2.4	-5.8	0.2	5056	-1.3
C[C@]12CC[C@H]3[C@@H](CCC4=CC(=O)CC[C@@]43O)[C@@H]1CCC2=O	-16.3	0.7	2.9	2.0	5.1	3784	1.7
CC(C)OC(=O)Nc1ccc(Oc2c(F)c(F)c(F)c(F)c2F)cc1	-0.9	14.7	13.0	-0.6	0.0	2505	18.6
Cc1ccc(NC(=O)C(C)OC(=O)c2ccc(NC(=O)CC#N)cc2)cc1S(=O)(=O)N1CCOCC1 (stereo unspecified)	-22.7	-5.0	7.2	0.3	1.0	5242	0.7
Cc1noc(C)c1CSc1nnc2cc(C)c3ccccc3n12	/	-1.1	-1.1	2.8	-2.7	/	6.7
O=C(CO/N=C/c1ccccc1O)NNC(=O)c1ccccc1Cl	4.2	-2.7	/	/	/	4771	/
Cc1ccc(S(=O)(=O)Cc2ccc(C(=O)N3CCCC3)o2)cc1	-6.0	-1.1	7.6	/	/	6159	1.7
CCOC(=O)c1ccc(CNC(=O)c2n[nH]c(=O)c3ccccc23)o1	-27.7	5.3	1.8	17.8	11.1	8835	1.6
O=S(=O)(Cc1ccccc1)N(O)c1ccccc1	-12.1	3.2	0.8	15.8	3.1	5596	0.8
CCn1c(SCC(=O)O)nnc1C1CCCCC1	-11.1	6.4	8.0	-0.1	-5.8	11102	3.6
C=CCn1c(=C(C#N)c2nnc3n2CCCCC3)sc(=Cc2ccc(Cl)cc2)c1=O	/	/	-2.9	-1.1	1.5	/	1.7
CCOP(=O)(OCC)C(Nc1cccc(C(F)(F)F)c1)c1ccc(F)cc1 (stereo unspecified)	-17.5	4.5	-11.2	-17.9	1.3	2437	-0.8
Cc1nc2ccccc2n1CCCOc1ccccc1	-34.4	-3.6	2.1	/	/	3705	2.1
COc1cccc(OCC(O)CN2CCN(CCN3C(=O)c4cccc5cccc(c45)C3=O)CC2)c1 (stereo unspecified)	-25.2	-2.8	3.9	-2.1	6.4	4620	2.5
O=C(Cn1nc(Cc2cccnc2)c2ccccc2c1=O)NCC1CCCO1 (stereo unspecified)	-64.7	3.8	2.3	5.9	6.6	5626	-11.6
O=C(CC1C(=O)NCCN1CC1CCCCC1)NCCc1ccc(F)cc1 (stereo unspecified)	0.2	-12.8	-3.2	-1.1	-0.9	2395	5.6
CCOC(=O)CCCCC(=O)c1[nH]c(=O)[nH]c1Cn1ccnc1	-23.1	-3.3	4.1	/	/	4294	0.0
CCOC(=O)C1CN(S(=O)(=O)c2ccc(C)cc2)c2ccccc2O1 (stereo unspecified)	-5.0	-0.8	5.8	-2.5	-9.4	3505	5.0
COc1ccc(N2CCN(C(=O)c3cccc(N4C(=O)C5C6C=CC(C6)C5C4=O)c3)CC2)cc1 (stereo unspecified)	8.0	0.5	3.7	1.7	-2.7	5642	-0.5
Cc1ccc(NC(=O)CSc2nc(C)c(C)c(C)n2)c([N+](=O)[O-])c1	-17.2	-7.2	4.9	5.6	-0.4	1970	4.2
Cc1cc(NC(=O)/C=C/c2ccc(Br)cc2)no1	-50.2	-2.5	6.6	-1.1	0.9	2338	4.8
Cc1ccc2c(c1)cc(CN(Cc1ccc3c(c1)OCO3)C(=O)c1cnccn1)c1nnnn12	-18.8	-20.6	-1.4	1.5	8.9	9999	0.8
COC(=O)c1ccc(C(=O)OC)c(NC(=O)C(C)(C)C)c1	-21.9	4.3	12.8	3.8	5.5	3909	0.9
Cc1cccc(N(C(=O)Cn2nnc3ccccc32)C(C(=O)NC(C)(C)C)c2ccsc2)c1C (stereo unspecified)	-13.1	1.2	1.3	3.7	-1.5	5887	3.4
Cc1ccc2[nH]cc(S(=O)(=O)c3ccc(F)cc3)c(=O)c2c1	-0.8	-1.6	1.5	13.1	6.6	2922	-0.1
CCOc1ccc(NC(=O)NC(=O)N(C)S(=O)(=O)c2ccc(C)cc2)cc1	-1.8	-6.5	10.3	4.7	11.1	2008	6.4
O=C(COC(=O)CSc1ccc(F)cc1)NNC(=O)c1ccc([N+](=O)[O-])cc1	-25.0	9.1	13.7	-0.9	6.4	4547	4.4
N/C(=N\OC(=O)c1ccc(OCC(F)(F)F)nc1)c1ccc(Cl)cc1	-24.4	-2.1	13.5	-4.8	-5.5	3117	4.3
CN(CC(=O)Nc1ccc(F)cc1)C(=O)CSc1nncs1	-16.5	2.8	3.8	-6.2	3.4	6426	2.0
CC(C)(C)C1CCC2(CC1)C(C#N)=C(SCC(=O)Nc1ccccc1)NC(=O)C2C#N (stereo unspecified)	-23.2	25.1	54.4	/	/	4863	43.4
COc1ccc(N2C(=O)c3ccccc3NC2c2cccnc2)cc1 (stereo unspecified)	-23.4	3.7	2.3	8.2	4.9	4579	-0.7
C=C(C)c1cccc(C(C)(C)NC(=O)NC2CCN(Cc3ccccc3)CC2)c1	-11.3	9.8	-2.5	7.8	-0.3	3948	-0.1
O=C(CSc1nc(=O)n2cc(Cl)ccc2n1)Nc1cccc2ccccc12	-6.9	0.6	-4.8	-12.9	5.4	5791	2.6
Cc1nc2ccccc2c(=O)n1NC(=O)Cc1ccc([N+](=O)[O-])cc1	-54.7	-0.7	6.0	11.1	2.0	3066	7.4
O=C(N/N=C\c1cc(Br)ccc1O)c1ccc(S(=O)(=O)N2CCCCC2)cc1	33.1	37.8	/	/	/	2060	/
COC(=O)CN1C(=S)N(Cc2ccccc2)C(=O)C1CC(=O)Nc1ccc(Br)cc1 (stereo unspecified)	-11.9	3.4	-12.5	/	/	3334	7.1
CC(C)(C)c1cc2ncnc(N3CCCCC3)c2s1	-21.8	1.5	20.9	11.4	3.7	4056	8.0
CC1CCN(S(=O)(=O)c2ccc3c(c2)c(=O)c(C(=O)NC2CCCC2)cn3C)CC1	-8.3	10.3	6.5	3.3	10.9	20721*	2.7
Cc1ccc(NC(=O)C2CCN(S(=O)(=O)c3ccc4c(c3)oc(=O)n4C)CC2)cc1	-44.5	-1.5	2.2	14.5	11.3	5382	5.1
CC(NS(=O)(=O)c1ccc(NC(=O)N2CCCCC2)cc1)c1ccccc1 (stereo unspecified)	-22.7	2.8	5.7	0.6	-2.6	6416	1.7
O=c1oc2ccccc2c(O)c1CN1CCCCC1	-0.1	-9.2	9.9	2.0	9.3	9598	24.9
Nc1nc(C23CC4CC(CC(Cl)(C4)C2)C3)cs1	-28.6	3.6	5.0	-2.7	5.0	4493	4.7
Cn1c(C(=O)NCC2CCCO2)cc2c(=O)n(C)c3ccccc3c21 (stereo unspecified)	-2.7	-0.5	11.1	/	/	5783	0.0
COc1ccccc1C(=O)Nc1ccc(C(=O)N2CCCCC2)cc1	-3.5	4.6	2.3	-1.3	1.0	4577	5.0
